Assay outcomes as filed in PubChem BioAssay.
VACV Venus inh – inhibitors of vaccinia virus (Venus reporter); Vaccinia virus Venus reporter expression, fluorescence; actives 0.46% (n = 330,000); Potency, µM (highest dose often 36.5 µM), for the others: top-dose activity change, negative = inhibition, usual class: inhibitors; AID 720580; active means well fitted inhibition curve with a large enough effect; inconclusive means small, poorly fitted or top-dose-only effect; inactive means no such curve, though single readings can be large or run the other way; tested in A549 cells; further: nearly all actives have a fitted effect of over 30% in size; inactives centre near -10
VACV mCherry inh – inhibitors of vaccinia virus infection (mCherry reporter signal); Vaccinia virus mCherry reporter infection, fluorescence; about a quarter of the inactives have no number; Potency, µM (series often up to 36.5 µM), inactives show top-dose activity change, negative = inhibition, actives largely listed as inhibitors; actives 0.63% (n = 310,000); active = well fitted inhibition curve with a large enough effect; inconclusive = small, poorly fitted or top-dose-only effect; inactive = no such curve, though single readings can be large or run the other way; tested in A549 cells; further: nearly all actives have a fitted effect of over 35% in size; inactives centre near -10
* = called active by the depositor; i = inactive; u = inconclusive; x = no result given; & = joins results of further samples; [ ] = dose if it differs, or a comment. On the % scale 0 is the no-effect control and ±100 the full control effect; potency means the concentration at half of the fitted maximal effect.

The opening 3 records as a preview:
SMILES	VACV Venus inh	VACV mCherry inh
S=c1nc(-c2ccc(Br)cc2)[nH]c2ccccc12	1.3%	-14.5%
Cn1c(=O)c2c(ncn2CC(O)CNc2ccc(Br)cc2)n(C)c1=O (stereo not given)	-25.2%	-2.5%
CCCCCCCCCCCCC/C=C/[C@@H](O)[C@H](CO)NC(=O)CCCCCCCCCCCCCCC	-8.4%[3.33 µM]	-15.0%[3.33 µM]

All compounds of this part, repeating the preview:
SMILES	VACV Venus inh	VACV mCherry inh
S=c1nc(-c2ccc(Br)cc2)[nH]c2ccccc12	1.3%	-14.5%
Cn1c(=O)c2c(ncn2CC(O)CNc2ccc(Br)cc2)n(C)c1=O (stereo not given)	-25.2%	-2.5%
CCCCCCCCCCCCC/C=C/[C@@H](O)[C@H](CO)NC(=O)CCCCCCCCCCCCCCC	-8.4%[3.33 µM]	-15.0%[3.33 µM]
CCc1cccc(C)c1NC(=O)c1cc(S(=O)(=O)N2CCC3(CC2)OCCO3)ccc1F	-7.1%	2.5%
CCC(C(=O)N(C)Cc1ccccc1)n1nc(C)c2sc3ccccc3c2c1=O (stereo not given)	-14.5%	-13.8%
COCc1nnc(NC(=O)CCc2ccc(OC)cc2)s1	-5.8%	-18.7%
Cc1ccc(S(=O)(=O)NCC(=O)N(CC(=O)NCc2ccccc2)CC2CCCO2)cc1 (stereo not given)	-15.4%	x
CCCCNC(=O)n1c(=O)oc2ccc(Cl)cc21	0.2%	-8.3%
CCOC(=O)C1C(=O)NC(c2ccccc2)=NC1c1ccc(OC)cc1 (stereo not given)	-9.8%	-1.6%
O=C(O)c1ccccc1Cc1ccc2c(c1)CCCC2	-3.4%	i
CCCN1CNc2c(c(=O)[nH]c(=S)n2CCc2ccc(C)c(C)c2)C1	-18.5%	i
COc1cc(/C=C/C(=O)O)ccc1OCc1cnc(Cl)s1	1.7%	7.6%
COc1cccc(CNC(=O)c2ccc(NC(=O)N3CCCCc4ccccc43)cc2)c1	-10.1%	-16.5%
O=C(CSc1nnc2ccc(-c3ccncc3)nn12)N1CCCCC1	-3.8%	-16.7%
CCc1ccccc1N(CC)C(=O)c1cn(CC)c(=O)c2cc(OC)c(OC)cc12	-12.4%	-24.1%
COc1ccccc1NC(=O)CSc1oc(-c2ccco2)nc1S(=O)(=O)c1ccc(C)cc1	0.0%	-10.4%
CCOc1ccccc1NC(=O)[C@@H](NC(=O)c1ccccc1F)C(C)C	-6.6%	-8.6%
CCn1c(O)c2ccc(C(=O)N=NC(=O)c3ccccc3)cc2c1O	-13.9%	-11.8%
Cc1cc(N2C(=O)C(O)=C(C(=O)c3cccs3)C2c2ccc(F)cc2)no1 (stereo not given)	-8.3%	-15.7%
C[C@]12C=CC(=O)C=C1CC[C@@H]1C2[C@@H](O)C[C@@]2(C)C1CC[C@]2(O)C(=O)COC(=O)CCC(=O)O (stereo not given in full)	-3.2%	-14.4%
COCC(C)NC(=O)CSc1nc2nn(-c3ccccc3)c(=O)c-2c2n1CCCCC2 (stereo not given)	-10.2%	i
COc1ccc(-c2nnn(CC(=O)N(CCCN3CCOCC3)C(C(=O)NC3CCCC3)c3ccco3)n2)cc1 (stereo not given)	-9.0%	i
CCC[C@H](N[C@@H](CCC)[C@H](O)c1ccccc1)[C@H](O)c1ccccc1	0.0%	-20.1%
Cc1cccc(N(Cc2ccccc2)C(=O)c2ccc(CS(C)(=O)=O)cc2)c1	-14.9%	0.0%
Cc1cccc(C(=O)NC2CCN(CC(=O)N3CCOCC3)CC2)c1	4.5%	3.6%
O=S(=O)(c1ccc(-c2cnc(C3CC3)o2)cc1)N1CCN(c2cccc(Cl)c2)CC1	-19.7%	-26.9%
C/C(CC(=O)Nc1ccc(N(C)C)cc1)=N\NC(=O)c1ccc([N+](=O)[O-])cc1	-7.3%	u
Cc1ccc2c(c1)C1CC(C)(O2)N(c2cccc(C(=O)N3CCN(c4ccccn4)CC3)c2)C(=O)N1 (stereo not given)	-25.5%	-6.3%
CCOC(=O)C(NC(=O)c1ccccc1)(OCc1ccc(F)cc1)C(F)(F)F (stereo not given)	-0.8%	-13.8%
CC(C)(C)NC(=O)C[C@H]1C[C@H](C(=O)N2CCOCC2)[C@@]2(CCC3CCCC3)c3[nH]c4ccc(Cl)cc4c3CCN2C1=O	-29.1%	-22.3%

(listing goes on)
SMILES	VACV Venus inh	VACV mCherry inh
C=CCn1c(SCC(=O)NC2CCS(=O)(=O)C2)nnc1-c1ccc(Cl)cc1 (stereo not given)	4.7%	-11.0%
COc1ccc(OC)c(NC(=O)c2cccn2-c2nnc(N3CCCCC3)s2)c1	1.4%	-6.2%
CC(C)(C)OC(=O)N1CCCN(C(=O)Nc2cccc(Cl)c2)CC1	-19.6%	-11.5%
CCc1nnc(NS(=O)(=O)c2ccc(N=CC3=C(O)CC(C)(C)CC3=O)cc2)s1	-14.4%	i
Cc1ccc(S(=O)(=O)Nc2cc3c(cc2C)n(C)c(=O)c(=O)n3C)cc1	-5.4%	-12.5%
C=C(C)c1nc2cc(OC)c(OC)cc2c(=O)o1	1.0%	x
COc1ccc(N(CC(C)C)S(=O)(=O)c2nnc(NC(=O)c3ccco3)s2)cc1	0.0%[7.34 µM]	0.3%[7.34 µM]
Cc1ccc(C(=O)Nc2ccnc(-c3ccncc3)n2)cc1	11.6%	3.9%
CCCC1(c2ccccc2)NC(=O)N(CC(=O)Nc2cc(C)ccc2OC)C1=O (stereo not given)	-6.3%	-6.7%
COc1ccc(C=CC(=O)c2c(OC)cc(OC)c(OC)c2O)cc1	u	u
CC(=O)NC(CCS(C)(=O)=O)C(=O)Nc1cccc2ccccc12 (stereo not given)	0.0%	u
CC(C)CC1C(=O)N(Cc2cn(CC3CCCCC3)nn2)CCS(=O)(=O)N1Cc1ccc(-c2ccc(Cl)cc2)cc1 (stereo not given)	u	u
Cc1cccc(N2CC(C(=O)Nc3nccs3)CC2=O)c1C (stereo not given)	-1.5%	5.8%
O=CN/C=C/c1cccc(O)c1	-3.8%	i
Cc1ccc(C(=O)c2cn(Cc3cccc(Cl)c3)c3nc(C)ccc3c2=O)cc1	-4.7%	-13.5%
O=c1nc2ccccc2c2n1CC(CN1CCN(c3cccc(Cl)c3)CC1)N2 (stereo not given)	-11.4%	i
CCCCCOc1ccccc1C(=O)NCCCC(=O)O	2.2%	-7.1%
COc1ccccc1Nc1nc2c(S(=O)(=O)c3ccc(C(C)C)cc3)nnn2c2ccsc12	-8.8%	-10.7%
CC(C)(C)OC(=O)C[C@@H]1C/C=C\C[C@@H](CC(=O)N(CCO)Cc2ccccc2)C(=O)N[C@H](Cc2c[nH]c3ccccc23)COC1=O	u	-7.6%
COc1cc(Cl)ccc1OCc1cc(C(=O)N2CCN(C3CCCCC3)CC2)no1	-17.8%	-8.1%
CN1CCC2(CC1)NC(=O)C1=C(CN(C)CC1)N2	-14.0%	i
O=C(CC1CCCCC1)Nc1ncn[nH]1	-7.1%	x
Cc1ccc(-c2nnc(-c3ccccc3Br)o2)cc1	-6.1%	-13.4%
CCc1cccc(NC(=O)CN2C(=O)COc3ccc(S(=O)(=O)Nc4ccccc4)cc32)c1	-5.4%	-8.5%
COC(=O)C1=C(C)NC(C)=C(C(=O)OCCN(C)Cc2ccccc2)C1c1cccc([N+](=O)[O-])c1 (stereo not given)	-16.3%&-10.5%&-5.7%	-8.4%&-9.4%&-12.3%
COc1ccc(N2CCN(Cc3nc4scc(-c5cccs5)c4c(=O)[nH]3)CC2)cc1	1.9%	-7.1%
O=C1CC(c2ccc(F)cc2)c2c(c3ccccc3[nH]c2=O)O1 (stereo not given)	u	u
CCCCC[C@H]1CN(C2CCCCC2)C(=O)[C@@H]1CC(=O)NCc1ccccc1	-28.8%&-16.6%	-6.5%
NC(=O)c1cc(-c2ccccc2)nc(N2CCCCCC2)n1	-17.0%	x
COCCCNC(=O)c1ccc(-n2c(-c3ccccc3)cc3c2CCC(C)C3)cc1 (stereo not given)	u	u

Following part:
Every second line gives: VACV Venus inh, VACV mCherry inh
Cc1cccc(NC(=O)c2cccc(N3C(=O)C4C5C=CC(C6CC56)C4C3=O)c2)c1 (stereo not given)
 : -25.1%, -7.8%
COC(=O)c1ccccc1NC(=O)CCCn1nc(C)c2c(C)n(-c3ccccc3)nc2c1=O
 : -12.7%&-2.3%, i
N/C(=N\c1nc2ccccc2o1)NC(=O)c1ccc(F)cc1
 : -19.9%, -3.7%
CCOc1ccc(CCNC(=O)C2CCCN(S(=O)(=O)c3c(C)n[nH]c3C)C2)cc1OCC (stereo not given)
 : -15.9%, i
CCc1ccc2c(c1)NC(c1cccnc1)=NC(c1ccc(C(C)(C)C)cc1)=N2
 : -25.1%, u
O=C(CSc1nnc(CNC(=O)c2ccccc2)o1)NCC1CCCO1 (stereo not given)
 : -15.9%, -18.4%
Cc1ccccc1C(=O)NC1(C(F)(F)F)N=C(c2ccccc2)N(C2CCCCC2)C1=O (stereo not given)
 : -2.2%, -6.4%
COc1ccc2c(c1OC)C(=O)OC2c1c(O)n(C2CCCCC2)c(=O)[nH]c1=O (stereo not given)
 : -3.9%, -7.1%
Cn1c2ccccc2c(=O)c2ccc(C#CC3(O)CCCCC3)cc21
 : -25.8%, i
CC1CCCCC1NC(=O)C1CCCN1S(=O)(=O)c1cccc2nsnc12 (stereo not given)
 : -4.4%, -2.5%
Cc1c(C(=O)N2CCC2)oc2ccc(Br)cc12
 : -16.9%, -13.5%
O=C(CCCc1cccs1)Nc1nc2c(s1)CCCC2
 : u, i
COc1cc(-c2cnc3c(NC(C)=O)cc(-c4ccccc4CN(C)C)cn23)cc(OC)c1OC
 : -18.8%, u
CCCOP(=O)(c1ccc(N(C)C)cc1)C(Nc1ccccc1)c1ccc(N(C)C)cc1 (stereo not given)
 : -5.8%, i
CCN(CC)CCCNC(=O)c1ccc2c(=O)n(CCc3ccccc3)c(=O)[nH]c2c1
 : -7.2%, -0.6%
Cc1oc2ccccc2c1CNC(=O)N(C)C
 : -8.4%, -14.8%
COCCNC(=O)c1ccc2snnc2c1
 : -6.3%, u
COCc1ccc(C(=O)Nc2cccc(S(=O)(=O)N(C)c3ccccc3)c2)cc1
 : -10.6%, i
O=S(=O)(Nc1nc(-c2ccccc2)cs1)c1cccc(C(F)(F)F)c1
 : -4.2%, -20.6%
CCOC(=O)c1c(O)cc(OC)cc1CCc1ccccc1
 : 3.8%, i

A draw from above in order of length of the SMILES, low to high:
Every second line gives: VACV Venus inh, VACV mCherry inh
Cn1c2ccccc2c(=O)c2ccc(C#CC3(O)CCCCC3)cc21
 : -25.8%, i
CCc1ccc2c(c1)NC(c1cccnc1)=NC(c1ccc(C(C)(C)C)cc1)=N2
 : -25.1%, u
COc1ccc2c(c1OC)C(=O)OC2c1c(O)n(C2CCCCC2)c(=O)[nH]c1=O (stereo not given)
 : -3.9%, -7.1%
COc1cc(-c2cnc3c(NC(C)=O)cc(-c4ccccc4CN(C)C)cn23)cc(OC)c1OC
 : -18.8%, u

Carrying on.
Every second line gives: VACV Venus inh, VACV mCherry inh
O=C(Nc1ccc(Oc2ccc(NC(=O)Nc3ccc([N+](=O)[O-])cc3)cc2)cc1)Nc1ccc([N+](=O)[O-])cc1
 : -10.2%, u
CC(=O)N(c1nnc(-c2ccc(C)cc2)s1)C1CCCC1
 : -6.9%, -15.0%
Cc1n[nH]c(C)c1N1C(=O)c2cccc3c(Br)ccc(c23)C1=O
 : 3.8%, -15.8%[1.46 µM]
CCOc1ccc2[nH]c3nc(SCC(=O)NC4CCCC4)nnc3c2c1
 : -3.2%, -1.4%
CCCNc1nc2c(c(=O)[nH]c(=O)n2C)n1CCOc1ccccc1
 : -17.9%, -8.7%
CCCCCn1nc(C)c(/C=N\NC(=O)c2cc(C)oc2C)c1C
 : 4.2%, -13.9%
C/C(=N\NC(=O)CSc1nc2ccccc2s1)c1ccco1
 : -8.8%, -13.4%
CN(C)c1ncnc2c1ncn2-c1ccccc1
 : -12.0%, 14.3%
Fc1cccc(Cl)c1CNC(c1ccccc1)c1ccccc1
 : 2.6%, 0.6%
Cc1cc2nc3s/c(=C/c4ccc(-c5ccccc5C(=O)O)o4)c(=O)n3c2cc1C
 : -3.1%, i
C=CCN1[C@@H](Cc2ccccc2)COCCS1(=O)=O
 : -17.3%&-21.1%, -12.9%&-16.9%
CCOc1ccc(NC(=O)N2CCN(S(C)(=O)=O)CC2)cc1
 : -12.8%, -9.8%
CCCc1sc(N)nc1-c1ccc(Cl)cc1
 : -26.2%, -25.3%
Cc1ccc(NS(=O)(=O)c2ccc3nc(-c4ccccc4)[nH]c3c2)cc1Cl
 : u, u
Cn1cccc1-c1cccnc1
 : -7.7%, i
Cc1ccc(-c2ccc(SCC(=O)NC3CCCCC3)nn2)cc1
 : -26.9%, -15.2%
O=S(=O)(c1ccc(C2CCCCC2)cc1)N1CCN(c2cc(Cl)ccc2Cl)CC1
 : 8.6%, 10.5%
CCN(CC)C(=O)c1cccc(-c2csc(C(O)c3cccc(Cl)c3)n2)c1 (stereo not given)
 : -10.9%, i
COc1cccc2cc(C(=O)Nc3cccc(C)n3)c(=O)oc12
 : 87.0%[activator], 71.8%[activator]
CCCCn1c(=O)[nH]c2ccccc21
 : -10.9%, i
O=[N+]([O-])c1ccc(Nc2c3ccccc3nc3ccccc23)cc1
 : u, u
O=C(NC1(Cc2ccc(O)cc2)CCCCC1)c1ccccc1
 : -20.6%, i

Copied from the list:
Reading of COc1cccc2cc(C(=O)Nc3cccc(C)n3)c(=O)oc12 under VACV mCherry inh: 71.8%[activator]
Reading of Cn1cccc1-c1cccnc1 under VACV Venus inh: -7.7%
Reading of C=CCN1[C@@H](Cc2ccccc2)COCCS1(=O)=O under VACV mCherry inh: -12.9%&-16.9%
